Assay outcomes from PubChem BioAssay.
TRPML1 agonist: agonists of human TRPML1 channel | Q9GZU1 | TRPML1-expressing cells, Ca2+ dye fluorescence, FDSS; host cell line not named in the record; reference of the full effect not given here | activation, % (concentration not given with the values) | 410,000 compounds, 0.12% hits; in the data active = activation above about 50%; inconclusive = about 30% to 50%; inactive = below about 30%; also: 0% is about no effect; the text of the record puts the active cut at 80%
Target sequence (Q9GZU1 whole entry, looked up): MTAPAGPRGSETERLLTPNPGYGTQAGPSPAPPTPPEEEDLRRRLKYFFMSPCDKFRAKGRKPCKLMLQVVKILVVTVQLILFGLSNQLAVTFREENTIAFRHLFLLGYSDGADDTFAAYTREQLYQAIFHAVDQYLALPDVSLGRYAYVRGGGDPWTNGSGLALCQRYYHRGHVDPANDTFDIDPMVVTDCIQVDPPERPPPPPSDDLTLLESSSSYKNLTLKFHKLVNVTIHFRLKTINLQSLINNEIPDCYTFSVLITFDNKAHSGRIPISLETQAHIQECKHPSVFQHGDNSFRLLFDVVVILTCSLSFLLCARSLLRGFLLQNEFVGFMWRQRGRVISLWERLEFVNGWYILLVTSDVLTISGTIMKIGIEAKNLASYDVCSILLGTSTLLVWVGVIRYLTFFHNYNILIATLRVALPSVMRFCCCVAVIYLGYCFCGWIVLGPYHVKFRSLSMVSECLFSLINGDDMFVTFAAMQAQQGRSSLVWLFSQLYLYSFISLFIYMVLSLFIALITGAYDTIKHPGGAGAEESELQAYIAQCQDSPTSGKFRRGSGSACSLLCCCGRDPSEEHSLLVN
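Cells: TRPML1-DL, 1X Tet inducer, ~16 h at 37 degrees C/5% CO2. Dye: ABD Ca8 no-wash + quencher, 45-90 min RT. Read: 10 s baseline, compound add, 110 s agonist phase; 54-4 EC80 (4uM final), 110 s antagonist phase.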
TRPML1 inh: blocks the human TRPML1 channel; activity change, negative = inhibition, % (test concentration not listed); 390,000 compounds, 0.02% hits; AID 624415; Q9GZU1; TRPML1-inducible cells, Ca2+ dye fluorescence, FDSS; active compounds read low; inhibition of EC80 agonist-evoked calcium signal; in the data active means activity change below about -50%; inconclusive means about -30% to -50%; inactive means above about -30%;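 also: stimulus is agonist 54-4 at its EC80 concentration; % is scaled to controls: 0 for no effect and ±100 for the full control effect; compound concentration not given in the record; the text of the record puts the active cut at -80%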
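TRPML1-DL cells, Tet-induced overnight (~16 h, 37 °C) at 1,500 cells/well, were loaded with Ca8 no-wash dye plus quencher for 45-90 min at room temperature. Compounds were pinned during FDSS kinetic reading; agonist 54-4 at EC80 (4 uM final) then added.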
PINK1 expr mod: modulators of PINK1 expression; PINK1 immunofluorescence, high-content cytometry, 24 h; Potency, µM (top dose mostly 76.6 µM), without a hit: top-dose activation (PINK1 increase), usual class: activators; 410,000 compounds, 0.2% hits; active = well fitted activation curve with a large enough effect; inconclusive = small, poorly fitted or top-dose-only effect; inactive = flat fitted curve, though single readings scatter; cell line not stated here;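 also: potency is read from the fitted curve at half-maximal effect; % of control where 0% means no effect; nearly all actives have a fitted effect of over 65% in size; a mitochondrial uncoupler was the plate control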
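A stable cell line was treated with compounds at 5 concentrations for 24 hours, with CCCP as control. PINK1 levels and mitochondrial localization were measured by immunofluorescence with mitochondrial, cell and nuclear markers after fixation, read by laser-scanning cytometry.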
Six1-Eya2 blk: inhibitors of human Six1/Eya2 interaction; AID 651725; 360,000 compounds, 0.56% hits; activity change, % (no concentration beside the values); AlphaScreen GST-Six1/His-Eya2 binding, biochemical; active compounds read low; control for the full effect not named in the record; in the data active = activity change below about -65%; inconclusive = about -30% to -65%; inactive = above about -30%; also: % is scaled to controls: 0 for no effect and ±100 for the full control effect
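GST-Six1 + His-Eya2 (5X stock: 250/500 nM); Tris pH 8.0, 300 mM NaCl, 0.05% BSA, 0.02% Tween 20; GSH donor/Ni acceptor beads; 1 h 37 °C dark; AlphaScreen readout.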
D2 ag: human D2 receptor agonism in beta-arrestin assay | DiscoveRx PathHunter D2 beta-arrestin, luminescence, 90 min; 100% = 57 uM dopamine signal | activation, % (no concentration beside the values) | 360,000 compounds, 0.084% hits | AID 624465; in the data active = activation above about 40%; inconclusive = about 15% to 40%; inactive = below about 15%; also: compound concentration not given in the record; the text of the record calls up to 30% inactive
Target sequence (P14416 whole entry, looked up): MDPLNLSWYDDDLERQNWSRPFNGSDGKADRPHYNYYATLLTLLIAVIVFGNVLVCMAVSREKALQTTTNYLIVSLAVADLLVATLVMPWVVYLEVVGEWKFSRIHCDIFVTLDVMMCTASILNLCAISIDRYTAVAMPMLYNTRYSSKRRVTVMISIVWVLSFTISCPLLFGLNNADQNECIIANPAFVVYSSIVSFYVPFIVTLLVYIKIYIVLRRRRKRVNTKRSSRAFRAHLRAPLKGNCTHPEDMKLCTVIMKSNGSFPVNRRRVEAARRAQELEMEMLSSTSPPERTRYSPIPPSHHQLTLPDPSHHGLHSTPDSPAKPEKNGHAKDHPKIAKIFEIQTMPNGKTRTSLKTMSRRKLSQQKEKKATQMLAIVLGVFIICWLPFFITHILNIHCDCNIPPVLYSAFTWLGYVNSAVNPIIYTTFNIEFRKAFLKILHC
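DiscoveRx PathHunter D2 beta-arrestin cells (2,100/well) attached overnight, then compound-stimulated 90 min at 37 C in HBSS/10 mM HEPES/0.1% Tween-20 buffer; beta-galactosidase complementation read by luminescence after 1 h at ambient temperature. Dopamine 57 uM final (EC100) as control.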
CtBP-E1A inh: blocks the CtBP interaction with E1A. AID 651724. activity change, % (test concentration not listed). 340,000 compounds, 0.49% hits. AlphaScreen GST-E1A/His-CtBP binding, 1536-well; active compounds read low; control for the full effect not named in the record; in the data active means activity change below about -65%; inconclusive means about -30% to -65%; inactive means above about -30%; also: % is scaled to controls: 0 for no effect and ±100 for the full control effect
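Homogeneous bead-based format: GST-tagged E1A captured on glutathione donor beads, His-tagged CtBP on nickel acceptor beads; compounds precede bead addition by 2 h at 37 °C.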
* hit, by the source's call; ? = inconclusive; / = no result given; [ ] = another dose, or the depositor's remark.

Each structure is followed by: D2 ag, Six1-Eya2 blk, TRPML1 agonist, PINK1 expr mod, CtBP-E1A inh, TRPML1 inh
C/C(=N\NC(=O)c1ccco1)c1cccc2ccccc12
    -3.3, -5, 0.0, -1.0%, 7, 19
COCCNC(=S)N1CCC(NC(=O)c2ccco2)CC1
    -0.3, 3, -0.5, 0.6%, 18, 27
Cc1c(/C=C(\C#N)C(=O)Nc2cccc(Cl)c2)c2ccccc2n1Cc1ccccc1
    /, /, 1.6, 1.0%, /, 16
O=c1c2ccccc2sc2c(CO)ccc(NCCN3CCCCC3)c12
    -1.3, ?, -0.3, -6.7%, ?, -1
COc1ccc(NC(=O)CN(C)C(=O)CCSc2ccc(F)cc2)cc1
    -4.2, -2, -1.3, 1.1%, 0, 2
O=C(Nc1ccc(-c2ccccc2)cc1)c1ccc2c(c1)S(=O)(=O)c1ccccc1C2=O
    -0.9, 0, 0.3, 6.1%, -5, 17
COCCCNC(=O)c1ccc(-n2c(-c3ccccc3)cc3c2CCCCC3)cc1
    /, /, 1.5, -0.9%, /, 19
O=C(NCCCN1CCOCC1)C1CCN(S(=O)(=O)c2cccc(Cl)c2Cl)CC1
    -1.8, 13, 0.8, 0.9%, -3, 33
O=c1c2cc(Br)ccc2nc(-c2cccc(Cl)c2)n1O
    -7.8, -6, ?, 7.9%, 0, -28
COc1ccc(N(C(C)=O)c2nc3ccccc3[nH]2)cc1
    -2.7, 7, -0.8, -0.5%, /, 1
Cc1ccc[n+](CC(=O)Nc2cccc([N+](=O)[O-])c2)c1
    -8.8, 4, 0.3, 2.9%, /, 0
COc1ccc(C2(c3ccc(OC)cc3)NC(=O)N(CC(=O)Nc3ccc(C(=O)N(C)C)cc3)C2=O)cc1
    -1.5, -1, 1.5, 0.3%, -15, 50
CCc1nc2ccc(C(=O)NCCc3c[nH]c4ccccc34)cn2c1N(C)Cc1nccn1C
    10, -8, -0.8, -0.4%, 6, /
CCOc1cccc(C(=O)N(Cc2ccc(F)cc2)Cc2ccco2)c1
    /, /, 4.4, -0.2%, /, 17
CC(=O)c1cccc(CN2CCC(C(=O)Nc3cccc(-c4ccn[nH]4)c3)CC2)c1
    -3.0, -8, 0.6, 0.5%, -7, -8
CCOC(=O)CCCNC(=O)CCNC(=O)c1ccc(OC)cc1
    -0.7, 6, 1.6, 7.9%[38.3 µM], 3, 2
Fc1ccc2cnc(-c3ccccc3)c(-c3cccc(C(F)(F)F)c3)c2c1
    -3.0, 1, 3.1, ?, 0, -5
O=C(Nc1nnc(CCN2CCCCC2)s1)c1cccc(Cl)c1
    -5.1, 7, 0.9, -0.2%, 3, 9
CCSc1nnc(NC(=O)COc2ccc(Cl)cc2)s1
    -3.3, 2, 0.3, 3.6%, 9, -16
O=S(=O)(CCN1C=CC(C(F)(F)F)=NCC1)c1ccc(F)cc1
    -2.9, 17, 0.4, 0.9%, 0, 14
O=C(NC(=S)Nc1ccccc1O)c1cccnc1
    -13, 5, 0.0, -0.8%, 1, 1
COc1ccc(/C=N/Nc2cc(C)nc(N3CCOCC3)n2)cc1OC
    -0.4, -2, -0.1, 1.1%, -2, 18
COc1ccc(S(=O)(=O)NCC2CCCN(C(=O)CN3CCCCC3)C2)cc1 (centres undefined)
    3.1, 21, -0.1, 2.0%, -17, -4
O=C(N1CCOCC1)N1CCN(S(=O)(=O)c2cccc([N+](=O)[O-])c2)CC1
    0.2, 7, 0.1, -0.4%, 4, 1
COc1ccc(CCNC(=O)c2cc(-c3ccccc3OC)on2)cc1OC
    4.1, -15, 2.9, -0.5%[38.3 µM], -17, -8
CN1C(=O)/C(=C2/C=CC=CN2C)OC1=S
    0.7, -1, -0.2, -1.3%, -11, -7
O=C(NC1CC1)C1CC(=O)N(c2ccc(F)cc2)C1 (centres undefined)
    -3.2, -1, -0.5, -1.0%, 0, -14
O=C(COc1ccc(S(=O)(=O)N2CCOCC2)cc1)NCCCn1ccnc1
    -4.8, 18, -0.5, 5.6%, 4, 32
Cc1ccc2oc(=O)n(CC(=O)c3ccc(F)cc3)c2c1
    1.3, 3, 0.1, 0.1%, 2, -2
O=c1ccc2cc(O)c(O)cc2o1
    -1.0, -17, 0.5, 0.4%, -6, 14

Of the compounds above, 2 contain a CF3 group:
Each structure is followed by: D2 ag, Six1-Eya2 blk, TRPML1 agonist, PINK1 expr mod, CtBP-E1A inh, TRPML1 inh
Fc1ccc2cnc(-c3ccccc3)c(-c3cccc(C(F)(F)F)c3)c2c1
    -3.0, 1, 3.1, ?, 0, -5
O=S(=O)(CCN1C=CC(C(F)(F)F)=NCC1)c1ccc(F)cc1
    -2.9, 17, 0.4, 0.9%, 0, 14

The listing continues:
Each structure is followed by: D2 ag, Six1-Eya2 blk, TRPML1 agonist, PINK1 expr mod, CtBP-E1A inh, TRPML1 inh
CCOc1ccccc1N(CC)C(=O)c1cc2c(=O)n(CC)c3ccccc3c2s1
    /, /, 2.9, ?, /, 46
CN1C(=O)/C(=C2\SC(=S)N(CCCCCC(=O)O)C2=O)c2ccccc21
    8.2, -1, -0.9, 1.6%, 8, -4
CCOC1=C2[C@@H](CN(S(=O)(=O)c3ccc(C)cc3)[C@H]2c2cccc3ccccc23)[C@H]2C(=O)NC(=O)[C@H]2C1
    -5.4, 10, 27, 0.6%, 0, -11
Cc1ccc(NC(=O)CCn2nnc3ccccc32)cc1
    -0.8, 19, 1.5, ?, 0, -8
O=C(CCN1C(=O)C2C3C=CC(C3)C2C1=O)Nc1ccc(F)cc1 (centres undefined)
    1.9, 8, 1.2, 1.0%, -1, -27
Cc1cccc(NC(=O)CSCC(=O)Nc2sccc2C#N)c1
    0.1, -3, 0.3, 0.0%, -5, 24
CCCc1cc(C(=O)Nc2sc(C)c(CC)c2C#N)no1
    -4.3, 0, -0.1, -1.3%, 0, 6
CN1CCN(C(c2ccccc2)c2sc3nc(-c4ccco4)nn3c2O)CC1 (centres undefined)
    /, /, 0.5, 0.3%, /, 8
COc1cc(C2c3c(oc4ccc(C)cc4c3=O)C(=O)N2Cc2ccc(F)cc2)ccc1O (centres undefined)
    /, /, -0.2, 1.1%, /, -10
CCCCN(CC)S(=O)(=O)c1ccc(C(=O)Nc2nnc(COC)o2)cc1
    -0.5, -14, -0.9, 2.8%, -13, -8
CSc1cccc(N2CC(C(=O)Nc3ccccc3N3CCCC3)CC2=O)c1 (centres undefined)
    -6.3, -19, 0.8, 2.9%, 0, 5
Cc1ccc(NC(=O)CCNC(=O)c2ccc([N+](=O)[O-])cc2)cc1S(=O)(=O)N1CCOCC1
    13, 4, 1.8, -1.5%, 13, 103
CCCCCCCCCCCCN1[C@@H](CC(C)=O)c2cc(F)cc(F)c2S1(=O)=O
    -5.6, 8, 0.4, 4.7%, 3, -13
CCCc1cnc2c(c1SCc1ccc(C(F)(F)F)cc1)c(=O)n(C)c(=O)n2C
    /, /, 0.4, 1.1%, /, 7
Cn1cccc1Cc1nnc(SCC(=O)N2CCOCC2)n1CCc1ccccc1
    -4.6, 5, 0.7, -0.3%, -15, -14
O=C(N/N=C/c1ccc([N+](=O)[O-])cc1)c1ccc2nc[nH]c2c1
    4.0, -5, -0.8, 2.1%, -1, 7
CCCOC1CCCN(C(=O)c2cc(COc3ccc(-n4cncn4)cc3)on2)C1 (centres undefined)
    4.4, 0, 1.0, -0.5%, 2, 7
Cc1ccc(C(=O)N(Cc2nnc(-c3ccccc3Cl)o2)C2CC2)o1
    -2.6, 32, -0.5, 1.6%, 1, -1
Cc1ccccc1Nc1n[nH]c(C)c1[N+](=O)[O-]
    -4.8, -14, -0.8, -2.3%, -13, 38
CN(C)CCNC(=O)C(=O)Nc1ccc2c(c1)N(S(=O)(=O)c1cccs1)CCC2
    -11, -2, 1.4, 10%, -20, -9
CC(C)NC(=O)c1ccc(COc2cccc3ccccc23)o1
    0.7, -2, -0.1, 2.2%, 4, 6
O=C(Nc1nc(-c2ccccc2)nc2ccccc12)c1ccc(F)cc1
    -3.8, 10, 1.1, 5.7%, -7, 6
Cc1c(C(=O)NCCSCc2ccccc2)cccc1[N+](=O)[O-]
    1.5, -11, -0.6, -1.4%, -10, -19
C=CCNC(=S)NN(c1ccccc1)c1ccccc1
    1.0, -3, 1.5, -0.3%, -3, 2
Cn1c(=O)n(Cc2ccccc2)c(=O)c2c1nc1n2CCN1Cc1ccco1
    -5.8, ?, 0.6, 6.2%, ?, ?
CC1CCCCC12NC(=O)N(CC(=O)Nc1ccc(N3CCOCC3)cc1)C2=O (centres undefined)
    -2.0, -2, 2.8, 0.6%, 2, -13
COc1ccc(/C=C/C(=O)N2CCNC(=O)C2)c(OC)c1
    -2.8, 5, 0.6, 1.2%, -11, -1
Nc1nnn(CC(=O)N/N=C/c2cccc(Cl)c2)n1
    3.4, -1, 0.1, 2.6%, 6, 13
CCCCCN(C(=O)CCC(=O)OCc1ccccc1C(F)(F)F)c1c(N)n(CCCC)c(=O)[nH]c1=O
    -3.1, -7, 0.5, 1.6%, 5, 2
Cc1cccc(NC(=O)c2nc[nH]c2C(=O)N(C)Cc2ccccc2)c1
    -8.5, -5, 0.3, 4.2%, 0, 5

Profiles, quoted from the list:
Results for Cc1cccc(NC(=O)CSCC(=O)Nc2sccc2C#N)c1 : D2 ag: 0.1; Six1-Eya2 blk: -3; TRPML1 agonist: 0.3; PINK1 expr mod: 0.0%; CtBP-E1A inh: -5; TRPML1 inh: 24
Results for Cc1ccccc1Nc1n[nH]c(C)c1[N+](=O)[O-] : D2 ag: -4.8; Six1-Eya2 blk: -14; TRPML1 agonist: -0.8; PINK1 expr mod: -2.3%; CtBP-E1A inh: -13; TRPML1 inh: 38

Remaining list, next part
Each structure is followed by: D2 ag, Six1-Eya2 blk, TRPML1 agonist, PINK1 expr mod, CtBP-E1A inh, TRPML1 inh
Cc1c(C(=O)OCC(=O)N(CCC#N)c2ccccc2)oc2c1ccc1ccccc12
    -3.0, -12, 1.7, -2.5%, 1, -1
O=C(Nc1ccc(Cl)cc1C(=O)Nc1ccccn1)c1ccco1
    -3.4, 4, 0.5, 0.7%, 6, -6
O=C(O)c1cc(S(=O)(=O)Nc2ccc3oc(=O)sc3c2)ccc1O
    -6.5, -9, -0.7, -3.9%, -9, 7
CC(OC(=O)C1=COCCO1)C(=O)NC1CCCC(C)C1C (centres undefined)
    -1.3, 11, -0.4, 1.4%, -6, 5
COc1ccc(NC(=O)c2ccc(NC(=O)COC(=O)c3cnc(C)cn3)cc2)cc1
    -5.8, -5, 0.9, -3.7%, -2, -1
COC(=O)C(NC(=O)c1c(C)nn(C)c1Cl)c1ccccc1 (centres undefined)
    2.9, 14, -0.2, -0.6%, 7, 22
COc1ccccc1C(=O)N/C(=C/c1ccc(Br)cc1)C(=O)NCCO
    -0.5, -2, 0.3, -0.7%[38.3 µM], -3, 7
COc1cc(/C=N/Nc2nc3ccccc3[nH]2)cc(OC)c1O
    12, ?, 2.1, 2.6%, ?, 1
CCOC(=O)N/N=C/c1ccc(OCCSc2ccc(Cl)cc2)c(OCC)c1
    -1.6, -6, -1.1, -0.5%, 2, -13
COCCN(Cc1ccccc1)C(=O)C1CCN(S(=O)(=O)c2ccc3c(c2)OCCO3)CC1
    -0.5, 3, -1.0, 1.0%, /, 5
